# WNV protease inh: blocks West Nile virus NS2B-NS3 protease activity. 65,000 compounds, 0.18% hits. WNV NS2B-NS3 protease, fluorogenic substrate Ex360/Em465; active compounds read low. z-score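 (tested at a level between 10 and 100 µM)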;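 active = z-score at -3 or under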;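 note: score is relative to mean and spread of the compound wells of a plate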
# Target sequence (P06935 1371-1501 limits assumed): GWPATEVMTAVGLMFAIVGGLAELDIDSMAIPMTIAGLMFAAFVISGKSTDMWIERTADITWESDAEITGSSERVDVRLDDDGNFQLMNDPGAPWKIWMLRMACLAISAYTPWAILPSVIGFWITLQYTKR
# Target sequence (P06935 1502-1679 limits assumed): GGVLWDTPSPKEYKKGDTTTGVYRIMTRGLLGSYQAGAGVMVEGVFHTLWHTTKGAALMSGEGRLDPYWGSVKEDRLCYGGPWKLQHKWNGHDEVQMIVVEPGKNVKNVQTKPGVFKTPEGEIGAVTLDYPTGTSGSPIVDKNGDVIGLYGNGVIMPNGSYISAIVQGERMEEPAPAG
# Hsc70: Hsc70 inhibitors, probe displacement, primary screen, biochemical, fluorescence polarization (AID 568) | Hsc70 fluorescence polarization, probe displacement; higher % means a stronger effect; strong numbers were not always called active | 83,000 tested, under 10 active | displacement, % at 20 µM, or IC50 in µM where a hit was titrated;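 active = displacement above 50% without optical interference and an IC50 on retest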;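 note: ATPase domain with a fluorescein-tagged ATP probe; 0% = vehicle and 100% = excess ADP; read after one hour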
# MT1-MMP reporter: inhibitors of MT1-MMP promoter transcription, cell-based, luciferase reporter, luminescence (AID 618) | calls from a first round at 10 µM; hits with a dose series show EC50 in µM | 87,000 compounds, 0.62% hits | MT1-MMP promoter luciferase reporter cells, luminescence;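 active = over half of the reporter light lost at 10 µM or EC50 under 50 µM; inactive = the rest and hits that failed the dose series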;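 note: actives suppress MT1-MMP promoter-driven transcription so potencies describe inhibitors; HT1080 fibrosarcoma cells; overnight exposure; toxic or luciferase-blocking compounds were not removed from the actives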
# Numbers without * were called inactive; i = inactive; x = no result given. Rows were taken by chance; any-hit rate near 0.77%.
canonical_smiles | Hsc70 | WNV protease inh | MT1-MMP reporter
CCN(CC)Cc1cc(CC(C(N)=O)C(N)=O)ccc1OC | -1.3% | 1.12 | i
Cc1nc2ccccc2cc1C(=O)NCc1ccco1 | 4.1% | 0.52 | i
O=C(Cc1coc2ccc3ccccc3c12)N1CCCC1 | 5.9% | 0.5 | i
CC(=O)c1ccc(NC(=O)CSc2nnc(-c3ccoc3C)n2Cc2ccccc2)cc1 | -2.6% | 0.69 | i
CC(C)OCCCn1c(=S)[nH]c2ncccc2c1=O | -2.3% | -1.36 | i
C/C=C(\C)CN1CCN(c2cc(C)ccc2C)CC1 | -4.0% | 0.47 | i
Nn1c(SC/C=C/c2ccccc2)nnc1-c1ccccn1 | -1.6% | -1.18 | i
O=C1OC(Nc2ccc(Br)cc2F)c2ccccc21 (stereo unspecified) | -1.2% | -0.51 | i
O=c1c2ccccc2nc(CSc2nnnn2-c2ccccc2)n1-c1ccccc1 | -5.0% | -1.53 | i
CCCn1c(/N=C/c2ccc3c(c2)OCO3)nc2ccccc21 | 2.5% | x | i
COc1ccc(Cn2c(=O)c3c(nc(NCCO)n3C)n(C)c2=O)cc1 | 1.0% | -1 | i
S=c1[nH]nc(COc2ccc3ccccc3c2)o1 | 2.3% | x | i
CCCCn1c(CCCNC(=O)CC)nc2ccccc21 | 0.4% | 0.2 | i
CCOC(=O)C1CCCN(CC(=O)Nc2c(F)c(F)c(F)c(F)c2F)C1 (stereo unspecified) | -2.2% | -0.71 | i
Cn1c(=O)c2c(nc(NCc3ccc4c(c3)OCO4)n2Cc2ccccc2)n(C)c1=O | -6.9% | -1.45 | i
COc1cc(N=c2ssnc2Cl)cc(OC)c1OC | -0.9% | 1.02 | i
COCCNCC(=O)NC12CC3CC(CC(C3)C1)C2 | 1.2% | -0.59 | i
CCc1ccc2c(c1)[C@]1(C(=O)N2)[C@@H]2C(=O)N(Cc3ccccc3)C(=O)[C@@H]2[C@@H]2CCCN21 | -1.4% | -1.45 | i
CSc1cccc(NC(=O)c2ccccc2N(C)S(C)(=O)=O)c1 | -0.9% | x | i
Cc1cc(=O)c2ccccc2[nH]1 | -9.0% | -1.75 | i

# 2 of these compounds in another layout.
canonical_smiles: COc1ccc(Cn2c(=O)c3c(nc(NCCO)n3C)n(C)c2=O)cc1
- Hsc70: 1.0%
- WNV protease inh: -1
- MT1-MMP reporter: i
canonical_smiles: S=c1[nH]nc(COc2ccc3ccccc3c2)o1
- Hsc70: 2.3%
- WNV protease inh: x
- MT1-MMP reporter: i

# (further entries)
canonical_smiles | Hsc70 | WNV protease inh | MT1-MMP reporter
CC(C)(C)c1cc(-c2ccco2)c(C#N)c(SCC#N)n1 | 0.2% | 0.01 | i
CCCC1(C(=O)O)NC(c2cccc(OC)c2O)C2C(=O)N(c3ccccc3)C(=O)C21 (stereo unspecified) | -3.2% | 0.28 | i
CC1CCN(c2nc(-c3ccncc3)nc3ccccc23)CC1 | 1.7% | -0.95 | i
O=C(CNCC1CCCO1)Nc1ccccc1-n1cccc1 (stereo unspecified) | -2.1% | -0.89 | i
Cc1cc(C)n(-c2ccc(C(=O)Nc3ccccc3N3CCOCC3)cc2)n1 | 2.8% | -0.16 | i
CC1CCN(CC(=O)Nc2sc3c(c2C#N)CCC3)CC1 | 0.5% | -0.75 | i
CC(O)c1nc2ccccc2n1CCOc1ccccc1 (stereo unspecified) | 4.6% | x | i
Cc1ccc(-c2cc3nc(C)cc(NCc4ccco4)n3n2)cc1 | -12.6% | 0.3 | i
Cc1cc(C)c(S(=O)(=O)Nc2cccc3nsnc23)c(C)c1 | 1.7% | 1.99 | i
CCn1c(=O)c(=O)n(CC)c2cc(S(=O)(=O)Nc3cccc(OC)c3)ccc21 | 1.7% | 0.36 | i
Cc1ccc(C(=O)CCNc2ccc(Br)cc2)o1 | -0.3% | -0.01 | i
COc1ccccc1OCCn1cc(C(=O)c2ccco2)c2ccccc21 | -7.1% | -0.4 | i
O=C1Cn2c(nc3ccccc32)N1c1ccccc1F | 5.6% | -1.61 | i
Cc1ccc(C(=O)CS(C)(=O)=O)cc1 | 9.7% | -0.59 | i
COc1ccc(-c2nc(SC)n(C)c(=O)c2C#N)cc1OC | -12.6% | -0.14 | i
CSC1=NCCN1C(=O)c1cccc(Br)c1 | 0.6% | 0.34 | i
Cc1ccc2nc(-c3sc4nc(C)ccc4c3N)[nH]c2c1 | -3.5% | x | i
COC(=O)C1=C(C)OC(N)=C(C#N)C1c1ccccc1F (stereo unspecified) | -7.7% | -0.2 | i
Cn1c(=O)oc2cc(S(=O)(=O)N3CCN(Cc4ccc5c(c4)OCO5)CC3)ccc21 | 1.5% | -0.63 | i
N#Cc1nc(-c2ccco2)oc1N1CCN(c2ccccc2)CC1 | -8.9% | 0.05 | i
COC(=O)CCC(=O)Nc1sc2c(c1C#N)CCCC2 | 5.9% | 1.85 | i
CC(C)(C)C1CCc2onc(C(=O)Nc3cccnc3)c2C1 (stereo unspecified) | 5.0% | -0.27 | i
Cn1c(=O)n(C)c2cc(NC(=O)C(F)(F)F)ccc21 | 3.7% | -0.17 | i
CN(C)c1ccc(-c2nn3c(-c4ccc(Cl)cc4)nnc3s2)cc1 | -3.5% | 0.49 | i
O=C(CSc1nc2ccncc2[nH]1)Nc1ccccc1C(F)(F)F | 4.0% | -1.25 | i
Cc1ccc(Cl)cc1N1CCN(C(=O)c2cn(C)c(=O)c3c2c2ccccc2n3C)CC1 | -0.4% | -0.59 | i
COc1ccc(OCC(=O)OC(C)CN2CCOCC2)cc1 (stereo unspecified) | 1.3% | x | i
Cc1cc(NC(=O)c2cc(-c3ccncc3)nc3c(C)cccc23)no1 | -0.1% | 0.48 | i
CCCCN1C(=O)C(NC(=O)c2cccnc2)(C(F)(F)F)C2=C1CC(C)(C)CC2=O (stereo unspecified) | 2.4% | x | i
Cc1ccc(S(=O)(=O)N2CCCC2C(=O)OCc2nc3ccccc3s2)cc1 (stereo unspecified) | 5.2% | -0.14 | i
O=S(=O)(c1ccc(Cl)cc1)N1CCN(C2CCN(Cc3ccccc3)CC2)CC1 | -1.3% | x | i
COc1ccccc1CCNC(=O)C1CCCO1 (stereo unspecified) | -2.0% | 0.33 | i
CCn1c(COc2cccc(OC)c2)nnc1SCC(=O)N1CCOCC1 | -8.9% | -1.11 | i
Cc1nnc(NC(=O)c2ccc3ccccc3c2)o1 | 0.2% | 0.21 | i
O=C(C1=C(O)C(=O)N(CCCN2CCOCC2)C1c1ccccn1)c1cccs1 (stereo unspecified) | 1.9% | -0.00585 | i
NC(=O)C1(N2CCCCC2)CCN(C(=O)c2cccs2)CC1 | 0.7% | 0.57 | i
Cc1ccc(C)c(OCC(O)CN2CCC(C)CC2)c1C (stereo unspecified) | -2.3% | 1.51 | i
CCSc1nc(-c2ccc(OC)cc2)ccc1C#N | -3.6% | -0.01 | i
CC1CCN(C(=O)N[C@@H](Cc2ccccc2)C(=O)O)CC1 | -2.2% | 2.03 | i
CCC(C)(C)n1nnnc1C(C(C)C)N(CCCO)Cc1cc2cc(C)ccc2[nH]c1=O (stereo unspecified) | -7.7% | -1.12 | i
Cc1cc(C)c(NC(=O)CN2CCOCCOCCOCCOCC2)c(C)c1 | -2.3% | x | i
N#Cc1ccccc1CSc1ccccn1 | -0.2% | 0.34 | i
COc1ccc(C2=NOC(C(=O)NCc3ccccc3)C2)cc1 (stereo unspecified) | 6.2% | 0.24 | i
COCCCNC(=O)C(F)(F)C(F)(F)C(=O)NCCCOC | 4.3% | -1.41 | i
CCOC(=O)CNC(=O)C1c2cc(OC)c(OC)cc2C(=O)N(C)C1c1ccccc1F (stereo unspecified) | -3.5% | -1.44 | i
CCC(=O)c1cn(CC(=O)NCc2cccnc2)c2ccccc12 | -4.1% | -1.45 | i
CCCn1c(NC(=O)c2cccc(S(=O)(=O)N3CCCC3)c2)nc2ccccc21 | 1.7% | 1.21 | i
O=C(CSc1nnc(NC(=O)C2CC2)s1)Nc1ccc(F)cc1 | -3.0% | -0.63 | i
C=CCn1c(COc2ccc(Cl)cc2)nnc1SCc1ccc(C#N)cc1 | -4.9% | -0.86 | i
COc1ccc(C2C(C(N)=O)=C(C)Nc3nc(-c4cccc(Cl)c4)nn32)cc1OC (stereo unspecified) | 5.7% | -0.48 | i
C=CCN=C(NC#N)SCC(=O)NCc1ccccc1 | -4.8% | 0.18 | i
Cc1ccc(S(=O)(=O)N(CC(=O)N2CCOCC2)CC(=O)N2CCOCC2)cc1 | -0.5% | -0.33 | i
CC1CN(S(=O)(=O)c2ccc(NC(=O)c3ccco3)cc2)CC(C)O1 (stereo unspecified) | -3.9% | -1.04 | i
COCCn1c(C)cc(C(=O)COc2nc3ccccc3nc2C)c1C | -3.4% | -1.21 | i
CCOC(=O)c1cnc2sccn2c1=O | -5.0% | -1.07 | i
CCCCC(=O)Nc1ccccc1C(=O)N1CCOCC1 | 0.7% | x | i
COC(=O)C1=C(C)N(C)C(=O)NC1c1ccc(O)c(OC)c1 (stereo unspecified) | -3.8% | -0.85 | i
O=c1c2ccccc2nc(SCc2nnc(-c3ccccc3)o2)n1-c1ccccc1 | -0.7% | 1.91 | i
CNC(=O)CSc1nnnn1-c1ccc(C)cc1C | 4.3% | 0.2 | i
Cc1cc(Nc2ccccc2F)n2nc(C)nc2n1 | 5.0% | -0.62 | i

# (cont.)
canonical_smiles | Hsc70 | WNV protease inh | MT1-MMP reporter
Cc1cc(N2C(=O)CC(C(C)c3ccccc3)C2=O)no1 (stereo unspecified) | -1.5% | x | i
O=C(Nc1ccc(F)cc1)N1CCn2c(nc3ccccc32)C1 | -0.1% | -0.26 | i
O=C(NC1CCS(=O)(=O)C1)C1CCCCN1S(=O)(=O)c1ccc(Cl)cc1 (stereo unspecified) | -1.5% | -0.0091 | i
Cc1nc2ccccc2c2c1C(=O)N(CCC1=CCCCC1)C2=O | -3.3% | -0.02 | i
Cc1c(C(=O)NCc2ccccn2)oc2ccccc12 | -1.1% | -0.26 | i
COc1cc(S(=O)(=O)NCCCN2CCOCC2)ccc1Cl | 0.7% | x | i
Cc1cc(NC(=O)c2cccc(S(=O)(=O)N3CCCCCC3)c2)n(-c2ccccn2)n1 | -0.5% | 0.66 | i
CCc1nc2ccccc2c(C(=O)O)c1C | -3.5% | x | i
COc1ccc(NC(=O)Cc2nc3ccccc3[nH]2)cc1 | 0.2% | -0.55 | i
CC(C)[C@H](NC(=O)NCCc1ccccc1)C(=O)O | -1.5% | x | i
COC(=O)c1ccc(CSc2nc3cc(Cl)ccc3s2)o1 | -3.1% | x | i
CCCOC(=O)c1ccc(Nc2cc(C)nc3ncnn23)cc1 | 5.1% | -0.19 | i
Cc1ccc(-c2nc(CS(=O)CC(=O)NCc3ccccn3)c(C)o2)cc1 (stereo unspecified) | -3.8% | 1.39 | i
CC(C)CNC(=O)CSc1nnc(-c2ccccn2)n1Cc1ccccc1 | -1.0% | -0.00614 | i
CCC(=O)Oc1cccc(C(=O)Nc2ccc(-c3nnc(-c4ccco4)o3)cc2)c1 | 5.1% | x | i
Nc1ccc(SCCN2C(=O)c3ccccc3C2=O)cc1 | 1.2% | 1.17 | i
CCS(=O)(=O)CCSc1nc2ccccc2s1 | -5.7% | 2.59 | i
CCCOc1cccc(C2/C(=C(/O)c3ccc(F)cc3)C(=O)C(=O)N2CCN(C)C)c1 (stereo unspecified) | -1.2% | -0.13 | i
c1cc(-c2nnc3n2CCCCC3)ccn1 | -1.6% | -1.38 | i
COc1cccc(NC(=O)Nc2cccn(Cc3ccccc3)c2=O)c1 | 6.0% | x | i
CCOC(=O)Nc1c(C(=O)OC)[nH]c2cccc(OC)c12 | -1.1% | 0.65 | i
CN(C(=O)c1ccco1)c1nc2c(s1)CCCC2 | 10.1% | x | 7.12µM*
Cc1ccc(NC(=O)CSc2nnc(CCNC(=O)OC(C)(C)C)o2)c(C)c1 | 2.7% | x | i
Cc1[nH]nc2c1-c1nc3ccccc3nc1C(C)(C)C2 | 2.1% | -0.15 | i
Cc1ccc(C)n1-n1cnc2sc3c(c2c1=O)CCC3 | -1.0% | 1.38 | i
Cc1c(C(=O)N2CCN(CCc3ccccc3)CC2)oc2ccccc12 | 10.3% | 0.39 | i
COC(=O)c1cc(C(=O)OC)n(Cc2ccc(F)cc2)n1 | 3.0% | -0.5 | i
Cc1nn2c(N)csc2nc1=O | 4.3% | 0.23 | i
CCCCNC(=O)c1sc2nc(C)cc(COC)c2c1-n1cccc1 | -1.3% | 1.53 | i
COc1ccc2nc(NC(C)=O)sc2c1 | -2.2% | x | i
CN(C)S(=O)(=O)c1ccc(NC(=O)c2cccnc2)cc1 | 1.5% | x | i
Cc1ccccc1N=C1Nc2ccccc2CS1 | -4.4% | -0.34 | i
CS(=O)(=O)N1CCN(c2nc(-c3ccc(F)cc3)cs2)CC1 | -2.7% | -0.13 | i
CC(C)Oc1cccc(C(=O)O)c1 | 2.2% | -0.3 | i
Cc1ccc(NC(=O)C2CCCN2C(=O)NC2CCCCC2)c(C)c1 (stereo unspecified) | 6.5% | x | i

# Quoted at random: 5 records from the list.
canonical_smiles | Hsc70 | WNV protease inh | MT1-MMP reporter
Cc1[nH]nc2c1-c1nc3ccccc3nc1C(C)(C)C2 | 2.1% | -0.15 | i
CCCn1c(/N=C/c2ccc3c(c2)OCO3)nc2ccccc21 | 2.5% | x | i
CNC(=O)CSc1nnnn1-c1ccc(C)cc1C | 4.3% | 0.2 | i
COc1ccc(C2C(C(N)=O)=C(C)Nc3nc(-c4cccc(Cl)c4)nn32)cc1OC (stereo unspecified) | 5.7% | -0.48 | i
Nn1c(SC/C=C/c2ccccc2)nnc1-c1ccccn1 | -1.6% | -1.18 | i

# Screening results as filed in PubChem BioAssay.
